Compound activity (PubChem BioAssay)
TRPV1 potentiator – enhances activation of the human vanilloid receptor TRPV1; TRPV1-expressing cells, Fluo-8 calcium influx, capsaicin EC20 potentiation; host cell line not named in the record; control for the full effect not named in the record; potentiation, % at 8.33 µM; 0.02% of 320,000 active; active means potentiation above 80%; inconclusive means 30% to 80%; inactive means below 30%; also: 0% is about no effect
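TRPV1-expressing cells were cultured overnight at 35.5C and loaded with Fluo-8 calcium dye for 40 to 90 min at room temperature. After a 10 s baseline, compound was added and calcium influx was read kinetically for 3 min (ex 480/em 520 nm).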
ClpP mod – qHTS Assay for Activators of ClpP; ATP-dependent Clp protease proteolytic subunit (Bacillus subtilis (strain 168)), P80244; purified B. subtilis ClpP, FRET peptide cleavage, 20 min; Potency, µM (doses to about 57.5 µM), without a hit: at the highest dose activity change, negative = active; 1.9% of 340,000 active; AID 651965, 2013; active = well fitted falling curve with a large enough effect; inconclusive = small, poorly fitted or top-dose-only effect; inactive = no such curve, though single readings can be large or run the other way; also: potency is read from the fitted curve at half-maximal effect; the source files actives as falling curves though it sought activators and does not explain the sign; nearly all actives have a fitted effect of over 65% in size; many hits overshoot -100%
Target sequence (P80244 whole entry, looked up): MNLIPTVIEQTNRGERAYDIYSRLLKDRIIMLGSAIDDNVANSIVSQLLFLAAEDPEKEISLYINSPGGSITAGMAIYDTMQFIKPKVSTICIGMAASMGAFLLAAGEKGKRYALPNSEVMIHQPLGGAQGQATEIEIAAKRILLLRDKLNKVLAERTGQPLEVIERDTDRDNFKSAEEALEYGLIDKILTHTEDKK
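Buffer: 100 mM Tris/HCl pH8, 100 mM KCl, 0.05% low protease BSA, 2.5% glycerol, 0.01% Tween-20. ClpP 10 microg/mL final; 20 min RT; delta FRET normalized to ADEP and DMSO controls.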
gsp antagonist – antagonizes gsp, the McCune-Albright syndrome mutation; gsp-mutant cells, cAMP HTRF, 30 min; control for the full effect not named in the record; Potency, µM (top dose mostly 76.9 µM), inactives show at the highest dose activity change, negative = inhibition, usual class: inhibitors; 0.4% of 340,000 active; AID 624288; active = falling curve of any shape with a large fitted effect; inconclusive = falling curve, mostly with a smaller effect; inactive = flat or rising curve; cell line not stated here;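 also: intracellular cAMP measured with PDE inhibitor Ro 20-1724 present during compound exposure; potency is read from the fitted curve at half-maximal effect; % is scaled to controls: 0 for no effect and ±100 for the full control effect; nearly all actives have a fitted effect of over 65% in size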
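G418-selected cells were plated in DMEM/10% FBS for 16-24 h at 37C, then treated with compounds plus the PDE inhibitor […] (300 uM solution added) for 30 min at 37C. Intracellular cAMP was measured by HTRF after 30 min lysis at room temperature.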
CtBP-E1A inh – CtBP/E1A binding inhibition; AlphaScreen GST-E1A/His-CtBP binding, 1536-well; hits give low values; control for the full effect not named in the record; activity change, % (no concentration beside the values); 0.49% of 340,000 active; AID 651724; in the data active means activity change below about -65%; inconclusive means about -30% to -65%; inactive means above about -30%; also: % is scaled to controls: 0 for no effect and ±100 for the full control effect; compound concentration not given in the record
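GST-E1A and His-tagged CtBP (125 nM each as 5X stock) were preincubated with pin-transferred compound for 2 h at 37 °C in the dark, then glutathione donor and nickel acceptor beads were added for 1 h before AlphaScreen reading.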
Sfp PPTase inh – Sfp phosphopantetheinyl transferase inhibition; 3.5% of 310,000 active; Q9F4F7; Potency, µM, for the others: max response, negative = inhibition, hits mostly inhibitors; AID 1490; Biochemical Sfp PPTase activity, qHTS; active = well fitted inhibition curve with a large enough effect; inconclusive = small, poorly fitted or top-dose-only effect, or another doubt; inactive = no such curve, though single readings can be large or run the other way;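 also: the enzyme is Sfp with the accession as filed and its product quenches rhodamine fluorescence; potency is read from the fitted curve at half-maximal effect; 0% = enzyme reaction without inhibitor and -100% = no enzyme wells; top concentration of the series not given in the record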
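Sfp 15 nM + cpd, 15 min RT; start w/ rhodamine-CoA 5 uM, BHQ-2-YbbR 12.5 uM (final); 50 mM Hepes pH 7.6, 10 mM MgCl2, 0.01% NP-40, 0.01% BSA; read 525/598 nm at 0 and 30 min.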
gsp agonist – activates gsp, the McCune-Albright syndrome mutation; gsp mutant cells, cAMP HTRF, 30 min; control for the full effect not named in the record; Potency, µM (titrated, usually from 76.9 µM), for the others: at the highest dose activation (cAMP increase), most hits filed as activators; 0.13% of 340,000 active; AID 624287; active = well fitted activation curve with a large enough effect; inconclusive = small, poorly fitted or top-dose-only effect, or another doubt; inactive = no such curve, though single readings can be large or run the other way; cell line not stated here;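 also: phosphodiesterase inhibitor Ro 20-1724 added with compounds to block cAMP breakdown; potency is read from the fitted curve at half-maximal effect; nearly all actives have a fitted effect of over 60% in size; about a fifth of the inactives were tested at one dose only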
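Cells stably selected in G418 were plated at 2000/well, grown 16-24 hr, then given compounds in DMSO with the PDE inhibitor […] (300 uM solution added) for 30 min at 37C; cAMP was read by HTRF.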
Menin MLL FP FL – displaces fluorescein MLL peptide from human menin; Fluorescence polarization, fluorescein-MLL peptide displacement from menin; FP activity change, % at 61.4 µM; 290,000 tested, under 10 active; inconclusive = falling polarisation curve, or a change in total fluorescence; inactive = total fluorescence flat and polarisation flat or rising; no compound was filed as active; the % refers to the polarisation; negative = inhibition;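 also: % of control where 0% means no effect; inhibitors lower the polarisation; unlabelled MLL peptide was the positive control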
An asterisk follows results filed as active; ? = inconclusive; / = no result given; & = joins results of further samples; [ ] = remark or other dose.

SMILES | TRPV1 potentiator | ClpP mod | gsp antagonist | CtBP-E1A inh | Sfp PPTase inh | gsp agonist | Menin MLL FP FL
CCCCN1CC[C@H]2C=CC[C@@H](C(=O)Nc3ccc(Cl)cc3Cl)[C@H]2C1=O | / | 1.6%&0.8% | -9% | / | / | -14% | /
COc1ccc(CN(C)C(=O)c2cc(S(=O)(=O)NCc3ccccc3)ccc2C)c(OC)c1 | -22 | -0.2% | ? | -1 | / | -9% | /
O=S(=O)(c1ccccc1)c1cnc(-c2cccnc2)nc1-c1ccc(Cl)c(Cl)c1 | -9 | -5.3% | 10% | 6 | 8% | -4% | -0.5
COc1ccc(C/C(C)=N/NC(=S)Nc2ccccc2F)cc1 | -17 | / | 8% | 0 | -13% | 5%[15.4 µM] | -1.1
CCNC(=O)c1c(O)c2c([nH]c1=O)CCCC2 | 7 | -17% | -11% | 5 | 18% | 37% | 3.5
CN(Cc1ccccc1Br)C(=O)CN1C(=O)NC2(CCCCCC2)C1=O | -14 | 0.3% | 12% | 2 | / | -12% | /
CC1CN(Cc2nc3c(c(=O)[nH]c(=O)n3C)n2CC(N)=O)CC(C)O1 (centres undefined) | / | -0.3% | 7% | 1 | 1% | -31% | 1.3
CN(C=[N+](C)C)c1cccc2c1C(=O)c1ccccc1C2=O | -9 | -3.3% | 4% | -68* | ? | ? | -25
CCC(C(=O)NC(C)(C)C)N(C(=O)Cn1nnc(-c2cccs2)n1)c1cnc2ccccc2c1 (centres undefined) | -16 | -1.2% | -2% | 0 | 17% | 11% | 2.2
CC(=O)NNC(=O)c1sc(=S)n2c1[nH]c(=O)c1sccc12 | 12 | / | 0% | ? | 18µM* | -10%[15.4 µM] | ?
O=C1c2ccccc2NC(c2ccccc2F)N1NS(=O)(=O)c1ccccc1 (centres undefined) | -7 | -6.0% | -4% | -5 | 9% | 0%[15.4 µM] | 0.3
COc1ccc(Cl)cc1NC(=O)C1(c2cccs2)CCOCC1 | -17 | 0.9% | ? | 9 | -5% | 15% | 0.4
Cc1cc(C)cc(-c2nnc(SCC(=O)c3ccc4c(c3)OCCO4)o2)c1 | 9 | -1.3% | 10% | 1 | 21% | -23% | -1.3
Cc1ccc(OCCC(=O)NNC(=O)c2ccncc2)cc1 | / | -0.7% | / | 5 | / | -35%[inhibitor] | /
CCn1c(SCC(=O)N/N=C(\C)c2ccco2)nnc1-c1ccccc1 | -3 | 1.0% | 2% | 2 | 16% | 2% | -4.4
C[C@H]1CN(c2ccc(Br)cc2)C(=O)[C@@H]1CC(=O)Nc1ccccc1 | / | -0.3% | / | 4 | / | -29% | /
O=C(c1cc(COc2ccc(F)cc2Cl)on1)N1C[C@H]2CC[C@H]1C2 | 30 | 28µM* | 4% | -15 | 10% | -10%[15.4 µM] | /
COc1ccc(NC(=O)C2CCC(C(C)(C)C)CC2)cc1S(=O)(=O)N1CCOCC1 (centres undefined) | ? | -2.6% | 0% | -23 | / | -40% | /
O=C(CCS(=O)(=O)c1ccc(Br)cc1)N1CCN(c2ccc(F)cc2)CC1 | 23 | 2.3% | 1% | / | 10% | -29% | -3.2
CCOC(=O)N1CCN(C(=O)CN2C(=O)c3ccccc3S2(=O)=O)CC1 | -3 | / | -7% | 6 | 22% | -6%[15.4 µM] | 2.5
CCOc1ccc(NC(=O)Nc2cc(C(=O)O)ccc2N2CC3CC(C2)c2cccc(=O)n2C3)cc1 (centres undefined) | -5 | -1.3% | 9% | 8 | 9% | ? | 1.6
COCCn1c(SCc2nc3ccccc3s2)nc2ccccc21 | -18 | -3.8% | -1% | -1 | 5% | -40%[inhibitor] | 2.9
Cc1ccc(-n2c(=O)cc(N3CC(C)CC(C)C3)[nH]c2=O)cc1 (centres undefined) | -25 | 0.3% | 12% | 8 | -3% | 7% | -1.1
CCO/C([O-])=N/c1c[n+](N2CCOCC2)no1 | 6&-6 | -0.5%&1.0% | 6%&4% | 3&6 | -20%&8%&25% | / | 1.5
O=C(CCl)NNc1nc(-c2ccccc2)c2cc(Cl)ccc2n1 | 7 | / | -5% | 8 | -3% | 0% | -7.8

Next part.
SMILES | TRPV1 potentiator | ClpP mod | gsp antagonist | CtBP-E1A inh | Sfp PPTase inh | gsp agonist | Menin MLL FP FL
COc1ccc(Cc2nnc(SCC(=O)N3CCN(c4ccccc4)CC3)o2)cc1 | -22 | 0.2% | ? | 4 | 3% | -42%[inhibitor] | -1.3
Cc1ccc(C)c(NC2=NCC(=O)N2c2ccc3c(c2)OCCO3)c1 | 14 | -1.1% | -7% | 1 | -9% | -23% | 0.8
CC1(C)Cc2c(C#N)c(OCC(=O)c3ccc(Cl)cc3)nc(-c3ccoc3)c2CO1 | 4 | -3.2% | -6% | -2 | ? | 24% | 4.4
CCCn1c(N)c(C(=O)CSc2nnc3n2CCCCC3)c(=O)[nH]c1=O | 0 | -0.8% | 17% | 1 | / | -5% | /
O=C(c1cnn2cccnc12)N1CCN(c2ccccc2)CC1 | -42 | -0.5% | 9% | 4 | 2% | -54%[inhibitor] | 0.9
O=C(Cn1nc(Cl)nc1Cl)c1cc2ccccc2oc1=O | 15 | 28µM* | -3% | 10 | 11% | 0% | 4.5
CCOC(=O)c1c(C)oc(NC(=O)CCl)c1C(=O)OCC | 2 | 0.9% | -1% | / | 4% | 1% | 0.2
CC(C)(C)c1ccc(C(=O)N2CCCC2c2cccs2)cc1 (centres undefined) | 2 | -0.1% | -42% | 0 | -4% | 0%[15.4 µM] | -0.5
CCC(CC(C)(C)O)C(=O)NNC(=S)Nc1ccccc1 (centres undefined) | 0 | / | 15% | 4 | 7% | -2%[15.4 µM] | -2.0
CC1C(=O)N2CCCc3cc(NC(=O)c4ccccc4Br)cc1c32 (centres undefined) | 12 | 1.2% | 17% | -7 | / | ? | /
CC(/C=N/NC(=O)c1c(Br)cnn1C)=C\c1ccccc1 | -16 | -4.2% | 3% | -3 | 3% | -11% | 4.8
COc1ccc2[nH]c(C(=O)O)c(NS(=O)(=O)c3ccc(C)c(C)c3)c2c1 | 8 | -12% | 8% | -15 | 12% | -120%[inhibitor] | -0.8
O=C(CCc1nnc2ccc(NCCCN3CCCC3=O)nn12)NCc1ccccc1Cl | 4 | 1.4% | 7% | / | 22% | -44% | 1.2
COc1ccc(-c2cc(=O)[nH]c3ccccc23)cc1 | -3 | 3.8% | -21% | -8 | / | -3% | /
Cc1cccc(N2CCN(CC(O)COc3ccccc3Cl)CC2)c1 (centres undefined) | ? | -3.7% | -8% | / | -12% | 22% | 1.9
O=S(=O)(c1ccc(S(=O)(=O)N2CCCC3(CCCCC3)C2)cc1)N1CCCCC1 | -5 | -6.1% | 6% | 7 | 8% | -9% | 0.3
O=[N+]([O-])c1cccc(S(=O)(=O)NCCOc2cccc3cccnc23)c1 | 19 | -0.3% | 10% | -7 | 16% | 18% | /
C1=C(CCNC2=NCCCCC2)CCCC1 | -8 | -3.1% | -2% | -3 | 9% | ? | 0.9
CCN(CC)C(=O)c1cn(C)c2ccc(S(=O)(=O)N(CC)CC)cc2c1=O | 11 | -2.8% | -10% | 4 | 14% | ? | 1.1
COc1ccc(CN2CCCC(C(=O)Nc3cccc(-n4cnnn4)c3)C2)c(C)c1C (centres undefined) | -19 | 2.5% | 11% | -4 | 9% | ? | /
O=S(=O)(Nc1nc(-c2ccccc2)cs1)c1cc(Cl)ccc1Cl | 10 | -2.2% | -12% | -9 | 5% | 0%[15.4 µM] | 1.3
Cc1c(NC(=O)c2ccccc2F)c(=O)n(-c2ccccc2)n1C | -17 | -2.0% | 5% | 4 | 14% | -8% | -0.2
Cc1csc(NC(=O)CCSCCc2ccccn2)n1 | 19 | -0.7% | 5% | 23 | -1% | 1% | 2.3
CNC(=O)C1CC(=O)N(c2ccc(OCC(=O)Nc3ccccc3)cc2)C1 (centres undefined) | / | / | 4% | -12 | / | 30%[15.4 µM] | /
COc1ccccc1/C=C/C(=O)OCC(=O)N1CCN(S(=O)(=O)c2ccc(C)cc2C)CC1 | -1 | -1.1% | -11% | ? | / | -5%[15.4 µM] | /
CCCOc1ccc(C2CC(=O)NC2=O)cc1 (centres undefined) | 6 | / | -6% | 1 | 14% | 10%[15.4 µM] | 0.9
CCNC(=O)NC(=O)CSc1ccc(S(=O)(=O)N(C)C2CCCCC2)cn1 | -3 | -2.8% | 4% | 3 | / | -26% | /
Cc1nc(-c2ccccc2)sc1C1(C)CC(c2cccc([N+](=O)[O-])c2)=NO1 (centres undefined) | -22 | 0.4% | -5% | -11 | -13% | / | 3.4
O=C(c1ccc(Oc2cc(Cl)cc(Cl)c2)o1)N1CCCCC1 | 5 | 1.1% | -10% | / | -11% | 6% | 2.9

Compounds were not picked by outcome (roughly 5.3% active in at least one column).
